# RecA intein inh: Mtb RecA intein splicing inhibition. P9WHJ3. cell-free RecA intein splicing, fluorescence. inhibition, %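 (about 9 µM by stock and volumes)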. hit rate 0.75% among 290,000; in the data active = inhibition above about 30%; inconclusive = no clear call, values can overlap the other calls;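 note: 0% = vehicle wells and 100% = reference inhibitor control wells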
# Target sequence (P9WHJ3 whole entry, looked up): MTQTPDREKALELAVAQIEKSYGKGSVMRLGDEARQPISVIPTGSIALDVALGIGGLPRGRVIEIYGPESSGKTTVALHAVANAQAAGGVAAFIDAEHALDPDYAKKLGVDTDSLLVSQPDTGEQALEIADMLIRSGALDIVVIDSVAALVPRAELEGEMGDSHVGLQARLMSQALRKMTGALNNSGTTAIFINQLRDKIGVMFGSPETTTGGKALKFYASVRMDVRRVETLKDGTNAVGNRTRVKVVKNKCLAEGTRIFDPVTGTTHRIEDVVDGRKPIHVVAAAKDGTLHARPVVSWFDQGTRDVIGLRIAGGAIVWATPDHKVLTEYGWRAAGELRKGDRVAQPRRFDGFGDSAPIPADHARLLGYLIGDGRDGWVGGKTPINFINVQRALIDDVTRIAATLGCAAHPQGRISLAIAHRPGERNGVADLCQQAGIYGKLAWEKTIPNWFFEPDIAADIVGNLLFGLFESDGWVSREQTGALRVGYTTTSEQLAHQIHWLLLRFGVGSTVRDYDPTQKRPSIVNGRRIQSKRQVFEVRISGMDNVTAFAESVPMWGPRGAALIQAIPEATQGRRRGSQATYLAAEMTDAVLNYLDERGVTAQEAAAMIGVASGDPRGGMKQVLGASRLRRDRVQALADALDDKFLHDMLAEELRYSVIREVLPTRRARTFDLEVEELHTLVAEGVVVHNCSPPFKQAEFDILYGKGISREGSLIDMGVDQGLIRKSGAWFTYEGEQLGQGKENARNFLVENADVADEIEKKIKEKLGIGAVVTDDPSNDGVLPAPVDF
# Arbovirus inh: arbovirus infection inhibition. arbovirus infection cell-based antiviral screen. inhibition, % at 10 µM. hit rate 0.37% among 200,000. AID 1251;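 active = inhibition from about 30%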;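 note: bluetongue infection of BSR cells; cell survival read as ATP light after 72 h; 0% = infected wells without compound and 100% = uninfected wells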
# Mtb H37Rv: M. tuberculosis H37Rv growth inhibitors, H37Rv strain (AID 1626). M. tuberculosis H37Rv growth inhibition; higher % means a stronger effect. inhibition, % at 10 µM, or IC50 in µM where a hit was titrated. hit rate 0.95% among 220,000;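 active = confirmed in a dose series; inconclusive = inhibition above 80% but not taken into the dose series; inactive = below 80% or under 30% at every dose of the series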;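 note: bacteria incubated seven days before Alamar blue readout; 0% = bacteria only wells and 100% = bacteria with antibiotic wells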
# Mtb betalactam: beta-lactam sensitization of Mtb H37Rv. M. tuberculosis H37Rv growth with meropenem, percent inhibition; hits of this screen are not shown here. inhibition, % at 25 µM. hit rate 0.27% among 330,000. AID 434955;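 active = about 74% or more and at least 40 points above the plate without the antibiotic, then above 30% in a dose series; inconclusive = first-round hits that could not be retested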;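 note: growth measured after seven days incubation then overnight dye step; 0% = bacteria only wells and 100% = bacteria with antibiotic; twin plates without the antibiotic show which effects depend on it; some results filed as inactive read as strong as hits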
# YopH inh: YopH (Yersinia) phosphatase inhibition; inhibition, %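 (about 10 µM by stock and volumes)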; fluorescence Ex485/Em525; AID 898; hit rate 0.16% among 140,000;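 active = inhibition of 50% or more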;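 note: controls were vehicle for no effect and minimum signal wells for full effect; inactives centre near -20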
# Arbovirus inh repeat: further read-out of Arbovirus inh, marked with its call; inhibition, %; measured here: 10K subset replicate screen; many hits read low in the repeat;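 first of two repeat runs on a subset; 0% = infected and 100% = uninfected wells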
# * hit, by the source's call; ? = inconclusive; nt = no result given. This is a subset (hit frequency here may not be typical).
SMILES,RecA intein inh,Arbovirus inh,Mtb H37Rv,Mtb betalactam,YopH inh,others
Cc1ccc(NC(=O)c2ccc3ccccc3n2)cc1S(=O)(=O)N1CCOCC1,-1.6,13,6%,2,nt,
CCCCNc1cc(C(=O)O)cc(S(N)(=O)=O)c1Oc1ccccc1,1.2,1,-10%,-1,-15,
O=C1c2ccccc2C(=O)N1CC1CCCO1 (centres undefined),0.5,7,-1%,-6,-20,
Cn1cc(CNC(=O)c2sc3cccc(Cl)c3c2Cl)cn1,-1.6,-6,-2%,-6,-21,
CCCOC(=O)c1ccc(Oc2cn[nH]c2-c2ccc(OCC(=O)NN)cc2O)cc1,3.0,nt,-2%,-5,nt,
Cc1ccc(NC(=S)NC2CCCC2)c(C)c1,0.6,nt,nt,-5,nt,
O=C(CCC1CCCCC1)Nc1c[nH]c(=O)[nH]c1=O,2.7,-3,-10%,2,-50,
CC(=O)C1=C(O)C(=O)N(c2ccccn2)C1c1ccccc1[N+](=O)[O-] (centres undefined),-8.2,nt,nt,-2,nt,
CCN(CC)C(=O)Cn1cc(S(=O)(=O)CC(=O)NCc2ccc(C)cc2)c2ccccc21,-0.2,nt,nt,-1,nt,
O=C(COc1ccc(Cl)cc1)NNC(=O)c1ccccc1C(=O)O,-0.3,nt,nt,-3,nt,
CC1CCCCN1CCCNC(=O)c1ccc2c(=O)n(CCc3ccccc3)c(=O)[nH]c2c1 (centres undefined),0.1,-30,0%,3,-19,
OCCNC(=S)Nc1ccc2c(c1)OCCO2,-0.8,nt,6%,-5,nt,
Cc1oc2cc3oc(=O)c(CCC(=O)NCCCN4CCOCC4)c(C)c3cc2c1C,-5.9,nt,nt,5,nt,
COc1cccc(NC(=O)C(c2ccccc2)N2CCN(c3ccccn3)CC2)c1 (centres undefined),-0.4,17,7%,-6,nt,
CCN(CC)S(=O)(=O)c1ccc(Cl)c(NC(=O)COC(=O)c2ccc([N+](=O)[O-])o2)c1,-0.2,nt,0%,66,nt,
CCNC(=S)Nc1cc(OCC)c(N2CCOCC2)cc1OCC,-3.0,1,-7%,-8,-33,
Nc1nc(-c2ccco2)nn1C(=O)c1ccccc1,15,0,-3%,-9,-32,
CCOC(=O)c1c(NC(=O)COC(=O)c2ccc(C)s2)sc2c1CC(C)(C)NC2(C)C,3.1,nt,nt,100,nt,
N#C/C(=C/c1cccs1)c1nc2ccccc2[nH]1,-0.8,-4,-2%,4,-22,
CN1C(=O)C(=Cc2ccc(N3CCOCC3)c([N+](=O)[O-])c2)C(=O)N(C)C1=O,1.6,3,-4%,-5,nt,

# Five entries picked at random from those above, as already listed:
SMILES,RecA intein inh,Arbovirus inh,Mtb H37Rv,Mtb betalactam,YopH inh,others
O=C1c2ccccc2C(=O)N1CC1CCCO1 (centres undefined),0.5,7,-1%,-6,-20,
N#C/C(=C/c1cccs1)c1nc2ccccc2[nH]1,-0.8,-4,-2%,4,-22,
Cc1oc2cc3oc(=O)c(CCC(=O)NCCCN4CCOCC4)c(C)c3cc2c1C,-5.9,nt,nt,5,nt,
Cn1cc(CNC(=O)c2sc3cccc(Cl)c3c2Cl)cn1,-1.6,-6,-2%,-6,-21,
COc1cccc(NC(=O)C(c2ccccc2)N2CCN(c3ccccn3)CC2)c1 (centres undefined),-0.4,17,7%,-6,nt,

# (cont.)
SMILES,RecA intein inh,Arbovirus inh,Mtb H37Rv,Mtb betalactam,YopH inh,others
CCOc1ccc2nc(NC(=O)C3=NNC(=O)CC3)sc2c1,-2.0,-10,46%,11,nt,
CCCCN(CCCC)CCCNC(=O)Cn1cc2c(n1)-c1c(oc(C(=O)N3CCCC3)c1C)CC2,-0.2,nt,nt,-4,nt,
CN(C)S(=O)(=O)c1cccc(C(=O)N=C2N=C3C=CC(Cl)=CN3Cc3ccccc32)c1,nt,nt,7%,-6,nt,
O=c1[nH]c(=O)n(Cc2ccccc2)c(O)c1C=NCCN1CCNCC1,-0.8,2,-5%,4,-10,
CC1C(C#N)=C(N)OC2=C1C(=O)CC(C)(C)C2 (centres undefined),-1.1,5,-5%,13,-47,
CCOC(=O)c1ccc(N2C(=O)c3n[nH]c(C)c3C2c2ccccc2)cc1 (centres undefined),8.5,7,-3%,-4,-24,
CC(=O)Nc1ccc(NC(=O)C(C)OC(=O)C2CCN(S(=O)(=O)c3ccc4c(c3)OCCO4)CC2)cc1 (centres undefined),0.3,nt,nt,-15,nt,
CN(C)C(=O)CN1C(=O)C2CCCCN2C(=O)c2ccccc21 (centres undefined),0.4,-1,-9%,5,-19,
COc1ccccc1N1C(=NC(=O)CCC2CCCC2)SC2CS(=O)(=O)CC21 (centres undefined),0.3,nt,nt,0,nt,
O=C(CN1CCCC1)Nc1ccc([N+](=O)[O-])cc1Cl,1.0,7,1%,-3,nt,
Cc1cccc2sc(NC(=O)c3cc(S(=O)(=O)N(C)C)ccc3N3CCCC3)nc12,8.2,-18,50%,40,nt,
COC(=O)c1ccccc1NC(=O)N1c2ccccc2CC1C (centres undefined),15,2,5%,9,-11,
CCCCn1c(N)c(N(CCOC)C(=O)c2ccc(N3C(=O)CCC3=O)cc2)c(=O)[nH]c1=O,-2.8,nt,nt,1,nt,
COc1ccccc1NS(=O)(=O)c1cc(NC(=O)C2CCCC2)ccc1N1CCOCC1,nt,12,0%,3,nt,
Cc1c(C)c2ccc(OCC(=O)c3ccccc3)cc2oc1=O,0.1,nt,nt,-8,nt,
Nc1nonc1-c1nc2ccccc2n1Cc1ccc(Cl)cc1,-5.6,8,1%,4,-30,
CCCc1c(C(=O)N/N=C/c2ccccc2C(F)(F)F)nnn1-c1nonc1N,-1.3,nt,nt,2,nt,
Cc1nn(-c2nc3ccccc3[nH]2)c(N)c1-c1ccccc1,7.5,-8,?,93,-20,
Cc1ccc2c(c1)N(C(=O)CCC(=O)NCCCN1CCN(C)CC1)CC(C)O2 (centres undefined),-1.8,nt,nt,-10,nt,
O=c1c2ccccc2nc(CSc2nnnn2-c2ccccc2)n1-c1cccc(C(F)(F)F)c1,-2.8,11,23%,-4,5,
COc1ccc(C2(C(=O)Nc3ccc(S(N)(=O)=O)cc3)CCCC2)cc1,-2.8,10,nt,-5,nt,
CSCCC(C(=O)NCc1cccs1)N1C(=O)c2ccccc2C1=O (centres undefined),0.8,11,6%,-8,-32,
O=C(Nc1ccc(S(=O)(=O)N2CCOCC2)cc1)c1cc(-c2ccccc2O)n[nH]1,6.8,nt,-9%,-14,nt,
Cc1ccc(C)c(CN2C(=O)c3ccccc3S(=O)c3ccc(C(=O)NCCCN4CCCC4)cc32)c1 (centres undefined),0.5,nt,nt,4,nt,
COC(=O)c1sccc1NC(=O)CC1C(=O)NCCN1C(=O)c1ccc(C)c(C)c1 (centres undefined),-2.4,nt,-6%,-10,nt,
CCc1ccc(Oc2cc(Cl)nc(N)n2)cc1,-0.5,5,16%,0,-14,
Cn1nc(-c2ccc(Cl)cc2)nc2c(=O)n(C)c(=O)nc1-2,94*,-31,-1%,?,101*,
COc1ccc(-n2nc(C(=O)NCC(=O)NC3CCCCCC3)c3ccccc3c2=O)cc1OC,-2.0,nt,nt,-1,nt,
C/C(=N/NC(=O)CNC(=O)c1ccccn1)c1ccc([N+](=O)[O-])cc1,-0.7,4,4%,1,nt,
Cc1c(NC(=S)NC(=O)CC(C)C)c(=O)n(-c2ccccc2)n1C,5.0,5,-3%,-9,nt,
CCN(CC)CCCNC(=O)c1cc2c(=O)n(C)c3ccccc3c2n1C,1.2,3,-5%,1,-30,Arbovirus inh repeat=-7
Cc1ccccc1-n1c(CSC(=N)N)nc2ccccc2c1=O,3.9,8,-11%,9,-24,
CCOC(=O)N1CCN(C(=O)c2oc3ccc(S(=O)(=O)N4CCCCCC4)cc3c2C)CC1,0.3,12,3%,-2,-75,Arbovirus inh repeat=0
COCCCNC(=O)CN1C(=O)COc2ccc(S(=O)(=O)N3CCOCC3)cc21,1.7,nt,nt,-4,nt,
COc1cccc(C(=O)N(C)c2nnc(-c3ccncc3)s2)c1,-0.8,-1,nt,-7,-155,
Cc1cc(N2CCCC2=O)cc(C)c1S(=O)(=O)Nc1c(C)nn(C)c1C,nt,6,-1%,-3,nt,
COc1ccc(/C=C/C2=CC(C)(C)NC(=S)N2)c(OC)c1,1.8,0,-10%,4,nt,
COc1ccc2c(c1)CCC/C2=N\NC(=O)c1ccoc1C,2.7,-1,4%,3,-47,
COc1ccc(S(=O)(=O)NCc2ccc(C(=O)N3CCc4ccccc4C3)cc2)cc1,0.7,-7,1%,2,-16,
CC(=C/c1ccc(C(C)C)cc1)/C=N/NC(=O)Cn1nnnc1N,2.8,nt,4%,0,nt,

# At a glance, 2 of the compounds above.
SMILES,RecA intein inh,Arbovirus inh,Mtb H37Rv,Mtb betalactam,YopH inh,others
COc1ccc(C2(C(=O)Nc3ccc(S(N)(=O)=O)cc3)CCCC2)cc1,-2.8,10,nt,-5,nt,
CSCCC(C(=O)NCc1cccs1)N1C(=O)c2ccccc2C1=O (centres undefined),0.8,11,6%,-8,-32,

# Further compounds follow.
SMILES,RecA intein inh,Arbovirus inh,Mtb H37Rv,Mtb betalactam,YopH inh,others
COc1ccc([C@H]2/C=C\CN(S(=O)(=O)c3ccc4ccccc4c3)[C@@H](C)C(=O)N2Cc2ccc(F)cc2)cc1,1.7,nt,7%,-16,nt,
O=C(Cc1ccccc1)Nc1ccc(NC(=O)c2ccco2)cc1Cl,2.3,nt,nt,-3,nt,
Cc1cc(C)n2ncc(/C(N)=N/OC(=O)Nc3ccccc3)c2n1,-4.2,nt,8%,-9,nt,
CC(=O)C1=C(O)C(=O)N(c2ccc(S(=O)(=O)Nc3nccs3)cc2)C1c1ccc(F)cc1 (centres undefined),4.2,nt,-7%,-9,nt,
COC(=O)/C=C1\N/C(=N\c2nc(C)cc(C)n2)N(c2ccc(C)c(C)c2)C1=O,1.4,0,1%,-2,-17,
O=C(COC(=O)c1ccc(CO)cc1)NCc1cccs1,-0.1,-2,3%,1,-25,
COc1ccc(C(=O)Nc2ccccc2-c2nnn(CC(=O)Nc3ccc4c(c3)OCCO4)n2)cc1,-1.2,-6,-4%,2,-44,
O=S(=O)(NC1=NCCCCC1)c1cccs1,0.1,7,1%,-5,-39,Arbovirus inh repeat=-1
COc1ccc(C(=O)Nc2ccccc2C(=O)NC(Cc2ccc(O)cc2)C(=O)NNC(=O)c2ccc(C)cc2)cc1 (centres undefined),3.0,-4,3%,11,-23,
CCOCC(=O)Nc1nc2ccccc2s1,2.6,-1,4%,28,-31,
CC(C)=CC(=O)O[C@H]1[C@@H]2[C@H](C)C(=O)O[C@@H]2C[C@@H](C)[C@@H]2[C@@H](O)CC(=O)[C@]21C,3.7,nt,0%,-9,nt,
O=C(N=Nc1c(O)[nH]c2ccc(Br)cc12)c1cc(-c2cccc3ccccc23)n[nH]1,5.0,-28,63%,97,-16,
Cc1ccc(S(=O)(=O)N2CCOCC2)cc1NC(=O)CSc1cccc[n+]1[O-],-2.4,-7,-3%,-6,-20,
CCOC(=O)N1CCN(C(=O)CN(C)S(=O)(=O)c2ccc(OCC)cc2)CC1,-1.6,nt,nt,-3,nt,
COc1ccccc1C(=O)NCC(=O)OC(C)C(=O)NC(=O)NC1CCCCC1 (centres undefined),3.0,6,-2%,0,-13,
O=C1CN=C(c2ccccc2)c2ccccc2N1Cc1ccc(C(F)(F)F)cc1,2.6,-5,7%,-5,-23,
Cc1c(CC(=O)N2CCC(C(N)=O)CC2)c(=O)oc2cc3c(cc12)CCC1(CCCCC1)O3,2.5,nt,nt,1,nt,
N#CC1=C(N)Oc2cc(O)ccc2C1C1CCCCC1 (centres undefined),-34,-9,5%,-2,-1,Arbovirus inh repeat=-1
COc1ccc(/C=C(\C#N)C(=O)Nc2cc(S(=O)(=O)N3CCCCC3)ccc2N2CCCCC2)cc1,-1.0,4,-7%,-1,-21,
Cc1cccc(C2c3[nH]c4ccccc4c3CCN2C(=O)c2noc3c2CCCC3)n1 (centres undefined),nt,24,10%,3,nt,
CCOCCOC(=O)NCCCCCCNC(=O)OCCOCC,-4.6,nt,0%,-7,nt,
Cc1cc(NS(=O)(=O)c2ccc(NC(=O)Nc3cccc(Cl)c3)cc2)no1,7.1,15,-9%,-6,-21,
C=C1C(C(=O)N2CCOCC2)C1C(=O)N1CCOCC1 (centres undefined),0.6,0,2%,5,-48,
CN1CCN(C(=O)c2cc3c(n(-c4ccccc4)c2=O)CC(C)(C)CC3=O)CC1,-2.2,-2,1%,0,-21,
CC/C(=N\NC(=O)c1nnn(-c2nonc2N)c1-c1ccc2c(c1)OCO2)c1ccccc1,-0.9,nt,nt,1,nt,
COc1ccc(C(=O)NCc2nnc(SCC(=O)Nc3cc(C)on3)o2)cc1OC,nt,1,7%,-11,nt,
CCOC(=O)c1cc(-c2ccc(OC(F)F)cc2)nc2nc(SC)[nH]c(=O)c12,0.0,9,5%,0,-17,
O=C(CCCC(=O)N(CC(=O)NC1CCCCC1)c1ccc(F)cc1)Nc1ccccn1,0.4,nt,nt,0,nt,
Nc1nc(Nc2ccccc2)nc(NCc2ccccc2)c1[N+](=O)[O-],-0.9,nt,20%,0,nt,
